MenB inh = inhibitors of Mycobacterium tuberculosis MenB enzyme; inhibition, %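 (about 12 µg/mL by stock and volumes)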; AID 540299; MenB enzyme assay, absorbance read-out; some hits fall short of the stated cut; P9WNP5; actives 0.43% (n = 100,000);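 active = mean of two replicates above 30%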;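 note: 0% = no compound and 100% = wells with inactive enzyme; the first replicate is given; strong numbers were not always called active; inactives centre near -10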
Target sequence (P9WNP5 whole entry, looked up): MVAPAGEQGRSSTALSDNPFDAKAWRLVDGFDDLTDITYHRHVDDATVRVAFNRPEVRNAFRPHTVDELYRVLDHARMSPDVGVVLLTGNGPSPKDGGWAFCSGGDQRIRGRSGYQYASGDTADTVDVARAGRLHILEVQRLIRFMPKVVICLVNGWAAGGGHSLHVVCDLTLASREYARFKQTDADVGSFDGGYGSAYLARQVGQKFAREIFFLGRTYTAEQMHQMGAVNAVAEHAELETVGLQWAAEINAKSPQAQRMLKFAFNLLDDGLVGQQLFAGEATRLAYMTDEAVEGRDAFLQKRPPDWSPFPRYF
MbtI inh = blocks the Mycobacterium tuberculosis siderophore enzyme MbtI | P9WFX0 | purified MbtI enzyme, fluorescence intensity read-out | inhibition, %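 (about 17 µg/mL by stock and volumes)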 | actives 0.89% (n = 100,000) | AID 493033;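 active = above 50% in both replicates, above 80% if mildly self-fluorescent; inactive = the rest, strongly fluorescent compounds included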;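 note: 0% = mean of negative and 100% = mean of positive controls; one replicate is shown; some compounds called inactive have numbers as strong as hits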
Target sequence (P9WFX0 whole entry, looked up): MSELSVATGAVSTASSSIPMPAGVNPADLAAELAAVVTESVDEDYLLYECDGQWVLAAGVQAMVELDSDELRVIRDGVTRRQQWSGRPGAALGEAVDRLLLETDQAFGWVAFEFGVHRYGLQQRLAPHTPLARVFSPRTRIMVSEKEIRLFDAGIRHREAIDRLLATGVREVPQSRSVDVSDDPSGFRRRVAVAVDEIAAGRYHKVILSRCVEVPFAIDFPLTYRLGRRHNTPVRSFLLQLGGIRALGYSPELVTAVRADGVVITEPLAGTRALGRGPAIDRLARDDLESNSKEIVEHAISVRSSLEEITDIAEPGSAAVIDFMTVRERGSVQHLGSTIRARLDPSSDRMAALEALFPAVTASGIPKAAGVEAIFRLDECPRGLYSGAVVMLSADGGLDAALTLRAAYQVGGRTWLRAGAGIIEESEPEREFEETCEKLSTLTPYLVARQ
Polio RdRp inh = poliovirus RNA polymerase inhibition | P03300 | poliovirus polymerase elongation, fluorescence polarization; active compounds read low | % elongation, % (compound at 16.7 µg/mL) | actives 0.66% (n = 150,000) | AID 588519; in the data active = % elongation below about 90%; note: some results filed as inactive read as strong as hits
Polio RdRp inh intensity = also measured in Polio RdRp inh; calls as there; % elongation; measured here: total intensity read-out; formula for this scale not given here;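 total fluorescence in place of polarization; lower means less elongation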
Numbers without * were called inactive; · = not tested or not shown.

Each structure is followed by: MenB inh	MbtI inh	Polio RdRp inh	Polio RdRp inh intensity
C1=C(c2cccc3ccccc23)N2CCN=C2S1
→ -22	-3	103	101
O=C(Cc1ccccc1Cl)Nc1ccccn1
→ -25	-11	102	102
N#CC1=C(N)OC2=C(C(=O)CCC2)C1c1ccccc1C(F)(F)F (stereo not given)
→ -40	-23	102	102
COC(=O)c1cc(=O)n(-c2ccccc2C(F)(F)F)[nH]1
→ -3	8	103	106
CC(C)Cn1c(=N)c(C#N)cc2c(=O)n3ccccc3nc21
→ -11	35	101	102
CCC1(C)NC(=O)N(/N=C/c2ccc(OCC(=O)N3CC(C)OC(C)C3)c(OC)c2)C1=O (stereo not given)
→ -22	-7	100	105
Cc1ccccc1NC(=O)CSCc1ccccc1
→ 1	-3	100	103
CC[C@@]1(O)C(=O)OCc2c1cc1n(c2=O)-c2cc3ccccc3nc2C1
→ -9	·	103	100
COc1ccc2oc(C(=O)OCc3cccc(S(=O)(=O)N4CCOCC4)c3)c(C)c2c1
→ -2	1	103	102
Clc1ccc(COn2nnc3ccccc32)cc1
→ -29	-5	103	102
CCCCn1c2c(c(=O)n(C)c1=O)C(c1ccc(OC)cc1)C1=C(CCCC1=O)N2 (stereo not given)
→ -31	-21	108	109
ClCc1nnc(-c2ccccc2)o1
→ ·	-6	98	102
Cc1ccc(CNC(=O)NCc2c(C)nn(C)c2C)cc1
→ 4	-21	102	104
O=S(=O)(NC1CC1)c1cccs1
→ 14	-7	98	101
Cc1ccc(S(=O)(=O)N2CCN(S(=O)(=O)c3ccc(C)cc3)C2)cc1
→ 3	-3	101	105
COc1cc(C(F)(F)F)cc(C(F)(F)F)c1C(=O)N1CCC(C(=O)c2ccc(Cl)cc2)CC1
→ -12	-17	105	112
CN(C(=S)NC(=O)c1ccccc1)c1ccc(OC(F)(F)F)cc1
→ -27	14	98	102
FC(F)(F)c1cccc(-n2c(Cn3nnc(N4CCOCC4)n3)n[nH]c2=S)c1
→ -14	-8	107	110
CCOC(=O)c1c(NC(=O)c2cc(-n3cnnc3)ccc2Cl)sc2c1CCCC2
→ -12	-4	·	·
CC1CCN(C(=O)C(C)NCc2ccc(F)cc2)CC1 (stereo not given)
→ -14	-7	101	99
N#CCn1c(=O)n(Cc2ccccc2)c(=O)c2cccnc21
→ -12	12	101	103
CS(=O)(=O)N1Cc2ccccc2CC1C(=O)OCC(=O)Nc1ccc(OC(F)(F)F)cc1 (stereo not given)
→ -16	6	105	103
COc1ccc(CCC(O)C2(O)CCCCC2)cc1 (stereo not given)
→ -18	·	101	89
O=C(Nc1c(C(=O)N2CCOCC2)cnn1-c1ccccc1)c1ccccc1F
→ -10	-11	103	104
Clc1cc2c(c3ncccc13)OCN(CCc1ccccc1)C2
→ -34	-4	109	139
Cc1ccccc1OCCn1cnc2c(N)ncnc21
→ -1	-12	102	103
Cc1nn(-c2ccccc2)c(C)c1COC(=O)c1ccc(S(=O)(=O)N(C)C)cc1
→ -8	-2	101	108
C=CCN(CC=C)S(=O)(=O)c1ccc(C(=O)N2CC(C)CC(C)C2)cc1 (stereo not given)
→ -15	9	99	99
O=C(NCc1ccccc1)C1CCC(Cn2c(=S)[nH]c3ccccc3c2=O)CC1 (stereo not given)
→ -13	-4	105	96
Clc1nncc2ccccc12
→ -34	2	100	103
CC1CC(=O)N(c2ccccc2)N1 (stereo not given)
→ -57	1	104	99
CCn1c(=NC(=O)c2ccc(S(=O)(=O)N(C)C)cc2)sc2ccccc21
→ -5	24	98	99
COc1ccc(OC)c(NC(=O)CCNS(=O)(=O)c2cccc3nonc23)c1
→ 10	18	100	99
COc1ccc(/C=C/C(=O)N2CCN(C(c3ccccc3)c3ccccc3)CC2)cc1OC
→ ·	-13	102	98
CCOC(=O)c1sc(NC(=O)CC)c(C(=O)OCC)c1C
→ -16	·	101	105
CCc1ccc(-c2ccc(C#N)cc2)nc1
→ -1	·	106	114
CC1=CC2=NC(=O)/C(=C\c3ccco3)C(=N)N2O1
→ -7	12	99	93
CCOC(=O)c1cn(C)c(=O)c2ccccc12
→ -4	4	101	103
CC1(C)CC(=NO)CC(C)(C)[NH+]1[O-] (stereo not given)
→ 2	0	99	101
Cc1ccc(C)c(Cc2c(C)nc3c(C(=O)NC4CC4)cnn3c2C)c1
→ -2	0	100	107
O=c1cc2[nH][nH]c(=S)n2c(=O)[nH]1
→ -57	62	99	112
O=C(O)CCN(Cc1ccccc1)S(=O)(=O)c1cccc(C(F)(F)F)c1
→ -17	10	102	107
Cc1cc(NC(=O)OCC(F)(F)F)no1
→ -46	-7	100	94
CC(C)NC(=O)Cn1c(SCC(=O)N2CCc3ccccc32)nc2ccccc21
→ 0	-6	102	103
N/C(=N/c1nc2ccccc2o1)NC(=O)Nc1ccc(Cl)c(Cl)c1
→ -25	4	99	100

By substructure: the compounds so far with a CF3 group.
Each structure is followed by: MenB inh	MbtI inh	Polio RdRp inh	Polio RdRp inh intensity
N#CC1=C(N)OC2=C(C(=O)CCC2)C1c1ccccc1C(F)(F)F (stereo not given)
→ -40	-23	102	102
COC(=O)c1cc(=O)n(-c2ccccc2C(F)(F)F)[nH]1
→ -3	8	103	106
COc1cc(C(F)(F)F)cc(C(F)(F)F)c1C(=O)N1CCC(C(=O)c2ccc(Cl)cc2)CC1
→ -12	-17	105	112
CN(C(=S)NC(=O)c1ccccc1)c1ccc(OC(F)(F)F)cc1
→ -27	14	98	102
FC(F)(F)c1cccc(-n2c(Cn3nnc(N4CCOCC4)n3)n[nH]c2=S)c1
→ -14	-8	107	110
CS(=O)(=O)N1Cc2ccccc2CC1C(=O)OCC(=O)Nc1ccc(OC(F)(F)F)cc1 (stereo not given)
→ -16	6	105	103
O=C(O)CCN(Cc1ccccc1)S(=O)(=O)c1cccc(C(F)(F)F)c1
→ -17	10	102	107
Cc1cc(NC(=O)OCC(F)(F)F)no1
→ -46	-7	100	94

Next section.
Each structure is followed by: MenB inh	MbtI inh	Polio RdRp inh	Polio RdRp inh intensity
CCOC(=O)CSc1nnc(Cc2ccc(OCC)cc2)n1C
→ -14	-8	102	104
CC(C)(C)N(Cc1ccccc1)C(=O)COc1ccccc1
→ -4	-8	100	101
O=S(=O)(c1ccccc1)N1CCN(c2nnnn2-c2ccccc2)CC1
→ 7	1	103	100
COc1ccccc1C(=O)ON1C(=O)c2ccccc2C1=O
→ -10	-110	99	100
COc1ccccc1/C=C/C1=NC(=C\c2ccc3c(c2)OCO3)/C(=O)O1
→ 13	-1	97	109
COc1c(NC(C)=O)oc2ccccc12
→ -26	-17	102	102
O=C(NC(=S)Nn1cnnc1)c1ccc(Cl)c(S(=O)(=O)N2CCCCCC2)c1
→ 0	11	99	105
CCCCN1C(=O)c2ccc(C(=O)OC3CCCCC3=O)cc2C1=O (stereo not given)
→ -24	-10	106	105
CC1=CC(OC(=O)Nc2ccc(Cl)cc2)CC(C)(C)C1 (stereo not given)
→ -30	-5	104	104
CSc1nc2ccc3nc(NC(=O)c4ccccc4Cl)sc3c2s1
→ -9	-81	103	108
CCOc1ccc(/C=N/n2c(C)nc3ccccc3c2=O)cc1
→ -54	-8	102	103
Cc1ccc(/C=C2\SC(=O)N(CCN3CN(CCO)c4nc5ccccc5n4C3)C2=O)cc1
→ -10	16	99	105
Cc1cccc(-c2nnc(CSc3nnc(C4CC4)n3-c3ccccc3)o2)c1
→ -4	-4	108	115
Cc1oc2c(Cl)c(Cl)c(O)c(CN(C)C)c2c1C(=O)c1ccc(Cl)cc1
→ -72	-11	100	100
COC(=O)c1ccccc1NC(=O)CC1Nc2ccccc2NC1=O (stereo not given)
→ -56	37	97	117
Cc1ccccc1-n1nc(C)c(CC(=O)O)c1C
→ -2	-4	100	102
N#Cc1c(=O)n(O)c2ccccc2[n+]1[O-]
→ -106	18	78	175
CC(C)CC(=O)NC(=S)N1CCCCCC1
→ -23	-9	100	103
CCOC(=O)C1CCN(S(=O)(=O)c2ccc3c(c2)SCC(=O)N3)CC1
→ 0	-7	103	102
CCOc1cc(CNCc2nnc3ccccn23)ccc1OCC(=O)N1CCCCC1
→ 8	8	101	95
O=C(CSc1nnnn1C1CCCC1)NC1CCCc2ccccc21 (stereo not given)
→ -11	-4	106	115
O=C(N/C(=C/c1ccc2c(c1)OCO2)C(=O)N1CCCC1=O)c1ccco1
→ -13	13	104	104
CN(C)CCN(C)C1CCc2ccccc2C1 (stereo not given)
→ 3	-4	100	103
O=C(Cn1cnc2c(oc3ccccc32)c1=O)NCCc1ccccc1
→ -3	-4	96	101
CC1=C(C(=O)Nc2ccc(CC(=O)NCc3ccc4c(c3)OCO4)cc2)SCCO1
→ -15	-31	101	103
CC(C)(C)OC(=O)NC1CCN(S(=O)(=O)c2ccc(OC(F)(F)F)cc2)CC1
→ -16	-16	103	103
Cc1noc(C)c1COc1cccc(C(=O)N2CCCSC2=Nc2ccccc2)c1
→ -11	-22	106	108
CCN(CC)CCN=Cc1c(O)n(-c2ccccc2Cl)c(=O)c2ccccc12
→ ·	-68	101	105
CN(C)c1ccc(/C=N/NC(=S)NC(C)(C)C)cc1
→ -9	-95	98	99
Cc1onc(-c2ccccc2)c1C(=O)N1CCN(C(=O)C2COc3ccccc3O2)CC1 (stereo not given)
→ 10	5	105	97
Cc1ccc2cc(CN(CC3CCCO3)C(=O)C3CCC3)c3nnnn3c2c1 (stereo not given)
→ -28	-8	105	104
CCOC(=O)c1c(NC(=O)C2C(C)(C)C2(C)C)sc2c1CCC2
→ -24	·	111	109
OC1(c2ccccc2)CCNC1 (stereo not given)
→ -1	-5	102	101
CCOC(=O)/C(C#N)=C\c1ccc(Br)s1
→ 17	-6	100	101
CCN(CCO)c1ccccc1
→ ·	-13	103	105
CC1(C)CC(=O)C2=C(C1)N(Cc1ccco1)C(=O)NC2(C(F)(F)F)C(F)(F)F
→ -15	-1	99	96
CCn1nc(CCC(=O)O)c2ccccc2c1=O
→ 29	-11	99	101
N#Cc1ccc(OCc2nnc3n2CCC3)cc1
→ -6	-2	98	100
CCN(CC1COc2ccccc2O1)S(=O)(=O)c1ccc(C)cc1 (stereo not given)
→ 0	3	100	101
CC(C)c1c(O)nc(SCCN2CCOCC2)[nH]c1=O
→ 17	-5	103	104
O=C(NCC1CC1)Nc1c[nH]c2ccccc2c1=O
→ -104	90	101	101
O=C1CCCc2nc3nc(-c4ccncc4)nn3cc21
→ -14	-9	100	106
Cc1c(C(=O)OCC(=O)N2CCCC2)oc2ccccc12
→ -26	54	102	106
CCN1c2ccccc2NC1SCC(=O)Nc1ccc(Cl)cc1 (stereo not given)
→ -28	·	100	100
O=C(OCC(=O)N1CCOCC1)c1ccc(Cl)c(S(=O)(=O)N2CCCC2)c1
→ 11	8	102	104
C#CCNc1cc(Cl)ccc1Cl
→ 5	-3	101	101
Cc1c(Cl)cccc1NC(=O)CSc1nccn1C
→ ·	10	101	99
CS(=O)(=O)Nc1nnc(SCCCc2ccccc2)s1
→ 2	-14	99	103
O=C(CNc1ccccc1N1CCCCC1)N1CCc2ccccc21
→ -35	-4	·	·
CSc1nnc2c(n1)[nH]c1ccccc12
→ -20	-6	100	97
COC(=O)NC(O)C(=O)c1ccccc1 (stereo not given)
→ -32	-3	105	104
COc1cccc(C2NC(=O)NC(C)=C2C(=O)c2ccccc2)c1 (stereo not given)
→ 8	17	101	99
CCC(Sc1nc2ccncc2[nH]1)C(=O)N(CC)c1ccccc1 (stereo not given)
→ -2	11	100	102
COc1ccc(NC(=O)c2cccc(S(=O)(=O)N3CCN(C)CC3)c2)c(OC)c1
→ 0	-1	106	110
C[C@@H]1CN(C2CCC(C#N)(c3ccc(F)cc3)CC2)CC[C@]1(C(=O)O)c1ccccc1 (stereo not given in full)
→ -11	-6	100	100
COc1c2c(nc3ccccc13)OC(C(C)(O)COC(C)=O)C2 (stereo not given)
→ 3	-3	102	103
COc1ccccc1Nc1ncc(C(=O)N(C)c2ccc(Cl)cc2)c2ccccc12
→ -31	15	101	105
COc1ccc(-c2csc(-c3cccs3)n2)cc1OC
→ -48	6	99	107
C=CCn1c(O)c(C2=c3ccccc3=NC2=O)c2ccccc21
→ 1	28	100	104
Cc1cc(C)n(-c2ncnc3scc(-c4ccccc4)c23)n1
→ ·	-3	102	104

(further entries)
Each structure is followed by: MenB inh	MbtI inh	Polio RdRp inh	Polio RdRp inh intensity
O=C(Nc1cccc(C(=O)N2CCCC2)c1)C1=CSCCO1
→ -26	14	101	102
CC(=C1C(=O)c2ccccc2C1=O)N1CCN(CCN=CC2=C(O)CC(c3ccc(C)cc3)CC2=O)CC1 (stereo not given)
→ -16	11	102	104
Cc1cc(C)nc(NCCS)n1
→ -48	-16	101	100
CC1Cc2cc(S(=O)(=O)Nc3ccc(F)cc3)ccc2N1C(=O)C1CCC1 (stereo not given)
→ -6	-13	99	101
CCOC(=O)c1cc(C(C)(C)C)nc(OC(=O)N(C)C)c1C#N
→ -11	6	107	108
Cc1cccc(C(=O)N(C(=O)c2cccc(C)c2)c2nnnn2C)c1
→ -15	19	104	101
CCc1c(C(=O)NCc2cnn(C)c2)csc1C
→ -14	-5	100	104
COC(=O)c1ccc(C=Nc2ccc3oc(-c4cccc(OC)c4)nc3c2)cc1
→ -6	4	102	97
O=S1(=O)CCC(SCc2nc3ccccn3c2Br)C1 (stereo not given)
→ ·	-3	103	98
Cc1ccc(/C=C2\C(=O)N(c3ccccc3C)C(=O)c3ccccc32)o1
→ -21	-4	102	105
CCc1ccc(-c2nn(Cc3ccccc3)cc2CN2CCN(CC(=O)N3CCOCC3)CC2)cc1
→ 3	-9	97	95

Compound activity from PubChem.
